PKD1 kinase inh = blocks activity of human protein kinase D1 | Q15139 | PKD1 kinase fluorescence polarization assay | inhibition, %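 (about 10 µM by stock and volumes)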 | hit rate 0.056% among 200,000 | AID 797;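 active means inhibition of 50% or more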;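 further: controls were vehicle for no effect and a reference inhibitor for full effect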
GALR2 agonist = GALR2 (human) receptor agonism | O43603 | GALR2-expressing cells, agonist activation read-out | activation, %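 (tested at 5 µM)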 | hit rate 0.48% among 140,000 | AID 803;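 active means above mean plus 3 SD of all compounds, about 5% in these data, not always enough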;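 further: 0% = vehicle buffer wells and 100% = reference agonist at full effect; tested in CHO reporter cells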
RGS16-Gao HTS = modulates binding between human RGS16 and Galphao | hit rate 0.38% among 220,000 | binding response (% of control), % at 10 µM | bead-based flow cytometry RGS16-Galphao binding, fluorescence; actives lie on both sides | O15492+P09471;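 active means below 25% or above 175%, edge rows of some plates excepted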;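 further: Galphao activated by GDP with aluminum fluoride before binding; 100% = wells without compound and 0% = beads without RGS; some results beyond the cut were filed as inactive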
Target sequence (O15492 whole entry, looked up): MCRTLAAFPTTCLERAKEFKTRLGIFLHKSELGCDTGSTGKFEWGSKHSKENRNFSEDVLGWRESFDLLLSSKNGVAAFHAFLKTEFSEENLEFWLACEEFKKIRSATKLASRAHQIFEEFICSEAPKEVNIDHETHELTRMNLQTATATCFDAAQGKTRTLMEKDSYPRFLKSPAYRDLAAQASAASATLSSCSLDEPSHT
Target sequence (P09471 whole entry, looked up): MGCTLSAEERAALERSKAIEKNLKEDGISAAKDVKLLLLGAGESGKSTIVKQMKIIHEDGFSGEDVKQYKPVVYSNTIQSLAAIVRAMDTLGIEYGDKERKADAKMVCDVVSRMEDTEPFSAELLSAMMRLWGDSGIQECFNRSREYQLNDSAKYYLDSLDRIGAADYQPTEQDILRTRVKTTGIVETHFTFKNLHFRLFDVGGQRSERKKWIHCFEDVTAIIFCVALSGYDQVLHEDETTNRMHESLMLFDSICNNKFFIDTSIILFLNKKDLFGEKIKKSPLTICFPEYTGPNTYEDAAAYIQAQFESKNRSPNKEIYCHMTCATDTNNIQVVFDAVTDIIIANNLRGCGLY
INS promoter inh = TRM-6 insulin promoter activity inhibition; TRM-6 cells (human fetal islet line), insulin promoter-eGFP reporter, imaging; reporter expression induced with tamoxifen; inhibition, % at 2 µM; hit rate 0.9% among 130,000;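 active means inhibition above the mean plus 3 SD, with well images judged a real hit on visual review, cut at about 60% in these data, passing the limit was not always enough; inconclusive means inhibition over the cutoff but images rejected on review; inactive means inhibition not above the cutoff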
HSV replic up = increases HSV replication in cells. HSV replication augmentation in cells, fold increase. maximum fold increase. hit rate 0.005% among 220,000. AID 1956;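 active means peak rise of 1.5-fold or more in the series; inconclusive means self-fluorescent or not available for retest; tested in PC3 cells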;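 further: first round at 10 µM; read as green reporter fluorescence; hits show the peak of a series up to 25 µM; 1 = signal of infected wells without compound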
INS promoter inh cell count = also measured in INS promoter inh; calls as there; normalized cell count, %; measured here: cell count, toxicity; reference of the scale not given here;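 cells exposed to compound for 48 h; stained nuclei by imaging scaled within each plate; lower means fewer cells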
HSV replic up primary fold = further read-out of HSV replic up, marked with its call; fold increase; compound at 10 µM; measured here: primary screen fold increase 10 uM; tested in PC3 cells;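 GFP signal in the first replicate; 1 = infected wells without compound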
* marks the source's active call; other numbers are inactive results; i = inactive; ? = inconclusive; . = not tested or not shown. Not all compounds are listed; the hit share may differ from the screen's.

Order of results: PKD1 kinase inh | GALR2 agonist | RGS16-Gao HTS | INS promoter inh | INS promoter inh cell count | HSV replic up | HSV replic up primary fold
(1) O=C1/C(=C\c2cccnc2)N2CCC1CC2
    . | . | 100 | . | . | i | 1
(2) O=[N+]([O-])c1cc(-n2cnnn2)c(O)c([N+](=O)[O-])c1
    . | . | 98 | . | . | i | 1
(3) CCOc1ccc(C2C(C#N)=C(N)Oc3c2c(=O)oc2ccccc32)cc1 (stereo not given)
    -9 | -2.0 | 102 | 0 | 96 | i | 1
(4) Cc1cccc(NC(=O)OC2CN3CCC2CC3)c1 (stereo not given)
    . | . | 99 | . | . | i | 0.96
(5) OC(Cn1c2ccccc2c2ccccc21)C[n+]1cccc2ccccc21 (stereo not given)
    -13 | -2.3 | 102 | -30 | 94 | i | 0.7
(6) O=C(c1cccn2c(=O)c3ccccc3nc12)N1CCC2(CC1)OCCO2
    -2 | -0.7 | 104 | 26 | 102 | i | 0.94
(7) CC(=O)c1ccccc1NC(=O)C1C2CCC(O2)C1C(=O)O (stereo not given)
    -6 | 0.9 | 99 | -4 | 173 | i | 0.9
(8) Cc1cc(/C=C2\C(=O)NC(=O)N(c3ccc(Cl)cc3)C2=O)c(C)n1C
    1 | . | 113 | . | . | i | 1.1
(9) COCCOC(=O)c1c(C)n(C)c2ccc(OC(=O)N(C)C)cc12
    2 | -1.6 | 101 | -61 | 74 | i | 0.81
(10) CC(C)Oc1cccc(C(=O)C2CCCN(C3CCOCC3)C2)c1 (stereo not given)
    6 | . | 104 | . | . | i | 0.93
(11) CC(C(=O)c1ccccc1)N1C(=O)c2ccccc2C1=O (stereo not given)
    -6 | -0.8 | 100 | 8 | 65 | i | 1.1
(12) CCCCCn1c(=O)c(C(=O)Nc2nc3ccccc3[nH]2)c(O)c2ccccc21
    . | . | 94 | . | . | i | 1.1
(13) CN(C)c1ccc(P(=S)(N(C)C)N(C)C)cc1
    5 | -1.0 | 104 | -74 | 78 | i | 1.1
(14) Brc1ccccc1
    . | . | 94 | . | . | i | 0.68
(15) CC(C)CCC1(CCc2ccncc2)C(=O)NC(=O)NC1=O
    -9 | -0.2 | 101 | 11 | 121 | i | 0.83
(16) CC(=O)OC1N=C(c2ccccc2)c2cc(Br)ccc2NC1=O (stereo not given)
    2 | -1.1 | 73 | 3 | 66 | i | 0.97
(17) Cc1nn(Cc2ccccc2)c(C)c1C(=O)OCC(=O)NC1CCS(=O)(=O)C1 (stereo not given)
    -11 | -0.9 | 111 | -7 | 85 | i | 0.84
(18) Cc1ccc(C(=O)N/C(=C\Cl)P(=O)(c2ccccc2)c2ccccc2)cc1
    -21 | -0.4 | 100 | 17 | 121 | i | 0.94
(19) OC1(CN2CCOCC2)C2CC3CC(C2)CC1C3 (stereo not given)
    3 | -1.8 | 80 | . | . | i | 0.94
(20) C=CCN1C(=O)/C(=C\c2ccc(N3CCOCC3)o2)C(=O)NC1=S
    -1 | 0.6 | 98 | 0 | 149 | ? | .
(21) CCCCn1c(N)c(C(=O)OCC2CCCO2)c2nc3ccccc3nc21 (stereo not given)
    -7 | 0.8 | 87 | -94 | 68 | i | 0.69
(22) O=C(NCC(c1cccnc1)N1CCOCC1)Oc1ccccc1 (stereo not given)
    -7 | -1.0 | 92 | -14 | 160 | i | 0.99
(23) O=C1/C(=C\c2ccc(Cl)c(Cl)c2)N2CCC1CC2
    . | . | 102 | . | . | i | 0.98
(24) Cc1cc(C)cc(N2C(=O)NC(=O)/C(=C/c3cccn3-c3ccc(Cl)cc3)C2=O)c1
    6 | -0.9 | 157 | 18 | 92 | i | 0.9
(25) CCOC(=O)C1(c2ccccc2)CCN(CC(=O)Nc2cccc3ccccc23)CC1
    -12 | -1.1 | 107 | 10 | 86 | i | 1
(26) O=C1C=Cc2ccccc2C1=O
    -8 | -0.8 | 79 | -48 | 139 | i | 1.1
(27) N#Cc1ccccc1NC(=O)CN1CC=C(c2ccccc2)CC1
    1 | . | 101 | . | . | i | 0.83
(28) CCCC(=O)NC(Oc1ccc(Cl)cc1Cl)C(Cl)(Cl)Cl (stereo not given)
    -2 | -2.0 | 100 | -38 | 97 | i | 0.91
(29) Cc1cc(N2C(=O)CC(N3CCC(n4c(=O)[nH]c5ccccc54)CC3)C2=O)no1 (stereo not given)
    1 | 0.5 | 103 | -31 | 147 | i | 0.89
(30) COc1ccc2[nH]c(C)c(CCNCc3cc(OC)c(OC)c(OC)c3)c2c1
    7 | . | 104 | 27 | 123 | i | 0.93

Record cards, from the list above:
Record of CC(=O)c1ccccc1NC(=O)C1C2CCC(O2)C1C(=O)O (stereo not given) = PKD1 kinase inh: -6; GALR2 agonist: 0.9; RGS16-Gao HTS: 99; INS promoter inh: -4; INS promoter inh cell count: 173; HSV replic up: i; HSV replic up primary fold: 0.9
Record of CCOc1ccc(C2C(C#N)=C(N)Oc3c2c(=O)oc2ccccc32)cc1 (stereo not given) = PKD1 kinase inh: -9; GALR2 agonist: -2.0; RGS16-Gao HTS: 102; INS promoter inh: 0; INS promoter inh cell count: 96; HSV replic up: i; HSV replic up primary fold: 1
Record of CC(C)CCC1(CCc2ccncc2)C(=O)NC(=O)NC1=O = PKD1 kinase inh: -9; GALR2 agonist: -0.2; RGS16-Gao HTS: 101; INS promoter inh: 11; INS promoter inh cell count: 121; HSV replic up: i; HSV replic up primary fold: 0.83

Next compounds.
Order of results: PKD1 kinase inh | GALR2 agonist | RGS16-Gao HTS | INS promoter inh | INS promoter inh cell count | HSV replic up | HSV replic up primary fold
(31) O=c1[nH]c(=O)n(C2CCCCC2)c(O)c1/C=C/C=Nc1ccccc1
    . | . | 103 | . | . | ? | .
(32) COC(=O)c1c(C)n(Cc2ccco2)c2ccc(O)cc12
    8 | 0.4 | 97 | -17 | 119 | i | 1
(33) COc1ccc(N=C(C)c2c(O)n(C3CCCCC3)c(=O)[nH]c2=O)c(OC)c1
    -10 | -0.1 | 104 | . | . | i | 0.84
(34) O=[N+]([O-])c1ccc(N2CCNCC2)cc1NCC1CCCO1 (stereo not given)
    -2 | -0.8 | 99 | -23 | 121 | i | 0.64
(35) Cc1ccc(-n2c(O)c(C=NCCCn3ccnc3)c(=O)[nH]c2=O)cc1
    . | . | 104 | . | . | i | 1.2
(36) CN(C)C(=O)Oc1cccc(-c2cn3cc(Cl)ccc3n2)c1
    -9 | -0.9 | 94 | . | . | i | 0.93
(37) CC(=O)OC1(c2ccc(C)cc2)CN2CCC1c1ccccc12 (stereo not given)
    9 | -2.4 | 41 | 29 | 163 | i | 0.96
(38) O=C(CN1CCCC1=O)NCCc1ccccc1
    -2 | . | 100 | 3 | 176 | i | 1
(39) O=C(c1ccc(N2CC3CC(C2)c2cccc(=O)n2C3)c([N+](=O)[O-])c1)N1CCCC1 (stereo not given)
    -4 | . | 103 | -56 | 156 | i | 0.98
(40) COc1ccc(CC2c3cc(OC)c(OC)cc3CCN2C)cc1O (stereo not given)
    -13 | -0.5 | 105 | 24 | 132 | i | 0.84

Of the compounds above, these have an NH in an aromatic ring:
Order of results: PKD1 kinase inh | GALR2 agonist | RGS16-Gao HTS | INS promoter inh | INS promoter inh cell count | HSV replic up | HSV replic up primary fold
(12) CCCCCn1c(=O)c(C(=O)Nc2nc3ccccc3[nH]2)c(O)c2ccccc21
    . | . | 94 | . | . | i | 1.1
(29) Cc1cc(N2C(=O)CC(N3CCC(n4c(=O)[nH]c5ccccc54)CC3)C2=O)no1 (stereo not given)
    1 | 0.5 | 103 | -31 | 147 | i | 0.89
(30) COc1ccc2[nH]c(C)c(CCNCc3cc(OC)c(OC)c(OC)c3)c2c1
    7 | . | 104 | 27 | 123 | i | 0.93
(31) O=c1[nH]c(=O)n(C2CCCCC2)c(O)c1/C=C/C=Nc1ccccc1
    . | . | 103 | . | . | ? | .
(33) COc1ccc(N=C(C)c2c(O)n(C3CCCCC3)c(=O)[nH]c2=O)c(OC)c1
    -10 | -0.1 | 104 | . | . | i | 0.84
(35) Cc1ccc(-n2c(O)c(C=NCCCn3ccnc3)c(=O)[nH]c2=O)cc1
    . | . | 104 | . | . | i | 1.2

Screens (PubChem BioAssay)
